# Screening data: PubChem BioAssay, National Center for Advancing Translational Sciences (NCATS)
# D2 PAM – positive allosteric modulators of human D2 dopamine receptor; P14416; AID 624464; DiscoveRx D2 beta-arrestin cells, luminescence, 90 min; 100% = 57 uM dopamine signal; potentiation, % (test concentration not listed); 0.23% of 360,000 active; active = potentiation of 50% or more; inconclusive = 30% to 50%; inactive = 30% or less;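 also: compound concentration not given in the record; tested on top of an EC20 dose of dopamine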
# Target sequence (P14416 whole entry, looked up): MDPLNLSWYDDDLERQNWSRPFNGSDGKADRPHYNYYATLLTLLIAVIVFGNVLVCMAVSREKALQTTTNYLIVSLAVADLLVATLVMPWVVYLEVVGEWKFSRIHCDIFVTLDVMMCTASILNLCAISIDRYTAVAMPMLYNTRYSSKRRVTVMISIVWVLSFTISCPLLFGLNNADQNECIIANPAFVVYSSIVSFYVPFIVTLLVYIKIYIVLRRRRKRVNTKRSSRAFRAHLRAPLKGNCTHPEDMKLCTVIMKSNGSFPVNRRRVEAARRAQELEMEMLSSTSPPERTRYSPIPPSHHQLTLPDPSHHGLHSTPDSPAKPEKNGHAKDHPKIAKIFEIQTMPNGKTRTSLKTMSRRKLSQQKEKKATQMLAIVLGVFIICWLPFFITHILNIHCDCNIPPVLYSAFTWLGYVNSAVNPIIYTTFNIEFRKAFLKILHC
#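 PathHunter beta-arrestin assay in DiscoveRx D2 cells. Compounds were added with an EC20 of dopamine (50 nM final) for 90 min at 37 deg C. Luminescence was read 1 h after detection reagent, with 57 uM dopamine as the EC100 control.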
# Six1-Eya2 blk – Six1/Eya2 interaction inhibition; AlphaScreen GST-Six1/His-Eya2 binding, biochemical; hits give low values; control for the full effect not named in the record; activity change, % (test concentration not listed); 0.56% of 360,000 active; AID 651725; in the data active = activity change below about -65%; inconclusive = about -30% to -65%; inactive = above about -30%; also: % is scaled to controls: 0 for no effect and ±100 for the full control effect; compound concentration not given in the record
#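 Compounds are tested against tagged Six1 and Eya2 proteins bridged by glutathione donor and nickel acceptor beads; after a one-hour incubation at 37 °C without light, AlphaScreen emission is recorded.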
# CtBP-E1A blk – CtBP/E1A binding inhibition; activity change, % (concentration not given with the values); AlphaScreen GST-E1A/His-CtBP binding, 1536-well; hits give low values; control for the full effect not named in the record; AID 651724; 0.49% of 340,000 active; in the data active means activity change below about -65%; inconclusive means about -30% to -65%; inactive means above about -30%; also: % is scaled to controls: 0 for no effect and ±100 for the full control effect
#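 Homogeneous bead-based format: GST-tagged E1A captured on glutathione donor beads, His-tagged CtBP on nickel acceptor beads; compounds precede bead addition by 2 h at 37 °C.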
# TRPML1 agonist – human mucolipin-1 channel agonism. TRPML1-expressing cells, Ca2+ dye fluorescence, FDSS; host cell line not named in the record; reference of the full effect not given here. activation, % (no concentration beside the values). 0.12% of 410,000 active; in the data active = activation above about 50%; inconclusive = about 30% to 50%; inactive = below about 30%; also: 0% is about no effect; the text of the record puts the active cut at 80%
# Target sequence (Q9GZU1 whole entry, looked up): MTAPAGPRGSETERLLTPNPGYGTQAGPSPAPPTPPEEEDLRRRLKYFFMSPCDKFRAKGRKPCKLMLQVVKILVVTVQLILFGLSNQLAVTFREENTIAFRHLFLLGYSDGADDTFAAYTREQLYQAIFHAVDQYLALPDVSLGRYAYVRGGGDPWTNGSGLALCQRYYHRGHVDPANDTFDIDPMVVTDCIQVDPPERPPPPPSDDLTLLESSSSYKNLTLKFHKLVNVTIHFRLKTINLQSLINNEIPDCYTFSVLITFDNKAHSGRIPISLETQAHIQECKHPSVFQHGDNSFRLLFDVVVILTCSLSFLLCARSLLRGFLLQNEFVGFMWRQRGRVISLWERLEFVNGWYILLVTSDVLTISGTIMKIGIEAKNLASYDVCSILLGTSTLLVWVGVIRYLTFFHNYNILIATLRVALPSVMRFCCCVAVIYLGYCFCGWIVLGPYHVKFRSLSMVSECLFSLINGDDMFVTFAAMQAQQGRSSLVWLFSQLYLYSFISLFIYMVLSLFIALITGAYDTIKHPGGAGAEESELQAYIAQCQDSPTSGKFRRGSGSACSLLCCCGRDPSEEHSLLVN
#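 TRPML1-DL cells, Tet-induced overnight (~16 h, 37 degrees C), loaded 45-90 min at room temperature with Ca8 no-wash calcium dye plus quencher. FDSS fluorescence: 10 s baseline, compound pin-transfer, 110 s agonist read, then EC80 54-4 (4uM final) and 110 s antagonist read.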
# TRPML1 inh – blocks the human TRPML1 channel. Q9GZU1. TRPML1-inducible cells, Ca2+ dye fluorescence, FDSS; hits give low values; inhibition of EC80 agonist-evoked calcium signal. activity change, negative = inhibition, % (no concentration beside the values). 0.02% of 390,000 active; in the data active means activity change below about -50%; inconclusive means about -30% to -50%; inactive means above about -30%;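 also: stimulus is agonist 54-4 at its EC80 concentration; % is scaled to controls: 0 for no effect and ±100 for the full control effect; compound concentration not given in the record; the text of the record puts the active cut at -80%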
#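 Tet-induced TRPML1-DL cells loaded with Ca8 no-wash calcium dye were read kinetically on FDSS. Compound addition was followed by EC80 agonist 54-4 (4 uM final); inhibition was read over 110 s.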
# TRPV1 PAM – enhances activation of the human vanilloid receptor TRPV1; Q8NER1; TRPV1-expressing cells, Fluo-8 calcium influx, capsaicin EC20 potentiation; host cell line not named in the record; control for the full effect not named in the record; potentiation, % at 8.33 µM; 0.02% of 320,000 active; active means potentiation above 80%; inconclusive means 30% to 80%; inactive means below 30%; also: 0% is about no effect
#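 Fluo-8 calcium influx in TRPV1-expressing cells, kinetic read (ex 480/em 520 nm). Compound added and read 3 min for agonist activity, followed by capsaicin at EC20 final and 2 min further read for enhancement.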
# Numbers without * were called inactive; ? = inconclusive; / = no result given.
# Start of the data: the first ten records, ahead of the listing:
SMILES,D2 PAM,Six1-Eya2 blk,CtBP-E1A blk,TRPML1 agonist,TRPML1 inh,TRPV1 PAM
NC(=O)NC(CC(=O)NNC(=O)c1ccccn1)c1ccc(Cl)cc1 (stereo not drawn),1,?,-76*,1.8,35,-4
Cc1ccccc1NS(=O)(=O)c1ccc(OCCNS(C)(=O)=O)cc1,-20,-3,1,1.1,6,5
N#Cc1cccc(S(=O)(=O)NCC(=O)OCC(=O)c2ccc[nH]2)c1,-3,-3,-3,-0.2,-10,3
Cc1ccc(S(=O)(=O)N2CCCCC2)cc1NC(=O)c1ccc2ccccc2n1,-13,-13,-6,0.5,64,18
CC(=O)c1ccc(N2CCN(C(=O)c3ccc(Cn4c(=S)[nH]c5ccc(N6CCOCC6)cc5c4=O)cc3)CC2)cc1,-5,-8,-2,1.1,36,6
COc1ccc(C2=C3C(=O)OCC3Cc3ncn(Cc4ccccc4)c32)cc1 (stereo not drawn),1,-6,-6,-0.7,-7,-2
Cc1nnsc1C(=O)NNC(=O)Nc1ccccc1,-2,2,/,0.8,-12,-2
COc1ccc(-c2cn3cc([N+](=O)[O-])ccc3n2)cc1OC,?,?,/,3.1,-1,-2
CCc1nnc(NC(=O)CN2CCN(CC)CC2)s1,-6,-1,/,/,/,8
N#Cc1ccc(C(S(=O)(=O)Cc2ccccc2)S(=O)(=O)Cc2ccccc2)cc1,-7,-2,1,1.7,4,/

# This part in full, from the first entry:
SMILES,D2 PAM,Six1-Eya2 blk,CtBP-E1A blk,TRPML1 agonist,TRPML1 inh,TRPV1 PAM
NC(=O)NC(CC(=O)NNC(=O)c1ccccn1)c1ccc(Cl)cc1 (stereo not drawn),1,?,-76*,1.8,35,-4
Cc1ccccc1NS(=O)(=O)c1ccc(OCCNS(C)(=O)=O)cc1,-20,-3,1,1.1,6,5
N#Cc1cccc(S(=O)(=O)NCC(=O)OCC(=O)c2ccc[nH]2)c1,-3,-3,-3,-0.2,-10,3
Cc1ccc(S(=O)(=O)N2CCCCC2)cc1NC(=O)c1ccc2ccccc2n1,-13,-13,-6,0.5,64,18
CC(=O)c1ccc(N2CCN(C(=O)c3ccc(Cn4c(=S)[nH]c5ccc(N6CCOCC6)cc5c4=O)cc3)CC2)cc1,-5,-8,-2,1.1,36,6
COc1ccc(C2=C3C(=O)OCC3Cc3ncn(Cc4ccccc4)c32)cc1 (stereo not drawn),1,-6,-6,-0.7,-7,-2
Cc1nnsc1C(=O)NNC(=O)Nc1ccccc1,-2,2,/,0.8,-12,-2
COc1ccc(-c2cn3cc([N+](=O)[O-])ccc3n2)cc1OC,?,?,/,3.1,-1,-2
CCc1nnc(NC(=O)CN2CCN(CC)CC2)s1,-6,-1,/,/,/,8
N#Cc1ccc(C(S(=O)(=O)Cc2ccccc2)S(=O)(=O)Cc2ccccc2)cc1,-7,-2,1,1.7,4,/
Fc1ccc(-c2nnc3ccccn23)cc1,-2,0,14,4.9,-10,-3
CCOC(=O)C1CCCN(C(=O)c2cccc(S(=O)(=O)N(C)c3ccc(C)cc3)c2)C1 (stereo not drawn),-14,-3,/,-1.6,18,-21
CCOc1ccc2[nH]c(=O)c(CN(CCc3ccccc3)C(=O)c3cnccn3)cc2c1,-2,-2,4,-1.5,0,11
Cc1ccc(C)c(N(C(=O)c2csnn2)C(C(=O)NC2CCCC2)c2ccncc2)c1 (stereo not drawn),-10,4,-11,0.0,12,24
CCOC(=O)C1=C(C(=O)OCC)c2ccc(OC)c(OC)c2C1,2,-2,-14,1.4,32,/
CC(=O)Nc1ccccc1-c1nc2cc(C#N)c(C#N)cc2[nH]c1=O,-7,-9,/,1.4,15,26
Cc1ccc(S(=O)(=O)CCC(=O)N(C)c2c(N)n(Cc3ccccc3)c(=O)[nH]c2=O)cc1,-1,7,-11,6.4,-4,-15
O=[N+]([O-])c1ccc(/C=N\NS(=O)(=O)c2ccc(F)cc2)o1,24,-1,-11,-0.1,25,-4
Cc1ccc(Cn2c(C(C)Nc3nc(-c4ccc(C)cc4)cs3)nc3cc(Cl)c(Cl)cc32)cc1 (stereo not drawn),-3,-4,0,-0.6,-13,9
O=C(c1ccc2ccccc2c1O)N1CCCCC1,-1,4,-10,-0.5,-17,/
C/C=C/C(=O)OCC(=O)Nc1ccccc1Br,1,5,4,1.4,29,9
COc1ccc(C2CC(c3cccs3)=NN2c2ccc(F)cc2)cc1OC (stereo not drawn),3,57,22,-0.4,2,16
CC1CCCC(NC(=O)C2CCN(S(=O)(=O)N3CCCCCC3)CC2)C1C (stereo not drawn),-5,-5,5,0.2,-11,-3
CCN1C(=O)C(O)(CC(=O)C(C)(C)C)c2cc(Br)ccc21 (stereo not drawn),-14,0,5,-0.4,1,-1
COc1ccc(NC(=O)CN(C)CC(=O)Nc2ccc(N3CCOCC3)cc2)c([N+](=O)[O-])c1,6,-11,-8,-0.1,-12,5
Cc1ccn2c(=O)nc(SCC(=O)N3CCN(c4ccccc4)CC3)nc2c1,-15,-2,-1,0.2,-7,20
COc1cc(C(=O)Nc2cccc3cccnc23)cc(OC)c1OC,3,-10,2,1.5,31,?
CCN(CC)c1ccc2c(Cl)cc(=O)oc2c1,-8,74,66,-0.3,10,-9
CCN(CC)c1ccc(C=NCCNS(=O)(=O)c2ccc(C)cc2)cc1,-6,19,0,1.0,22,1
N#CC(C#N)=C(Nc1ccc(F)cc1)SCc1cccc(F)c1,-5,3,1,3.7,18,9
CCOC(=O)C1CCN(C(=O)c2ccc(N3CCCC3=O)cc2)CC1,8,3,6,2.7,21,-2
Cc1onc(-c2ccccc2)c1C(=O)Nc1ccncc1,16,12,4,0.7,6,3
COC(=O)c1ccccc1NC(=O)c1cc(-c2cccs2)on1,-4,7,-2,0.6,-8,-11
COc1cc([N+](=O)[O-])cc(/C=N\NC(=O)C2COc3ccccc3O2)c1O (stereo not drawn),-16,-89*,/,0.3,-20,3
O=C(c1ccc(Cl)cc1)C1CCCN(C(=O)c2csnn2)C1 (stereo not drawn),-4,-2,/,-0.8,-10,-6
Cc1cc(CNC(=O)CC2C(=O)NCCN2CC(C)(C)C)nn1C (stereo not drawn),-7,3,/,0.4,24,8
O=C1NC[C@H](CCCCN2C[C@H](Cc3ccccc3)N(Cc3ccccc3)C(=O)C2=O)N(CCc2ccc(O)cc2)C1=O,/,-2,-1,-0.9,/,/
O=C(NC(=S)Nc1ccc(N2CCOCC2)cc1)c1ccc2c(c1)OCCO2,-6,?,/,0.5,-8,11
N#Cc1ccc(CN2CCN(C(=O)CN3C(=O)NC4(CCCC4)C3=O)CC2)cc1,1,7,4,-0.4,10,7
O=C(CCNC(=O)c1ccc(Br)cc1)OCc1ccccc1Cl,-8,-1,-1,0.7,4,-10
O=C(CCC1CCCN(Cc2ccc3c(c2)OCCO3)C1)NCc1ccccc1F (stereo not drawn),-20,3,7,0.6,-8,2
COc1ccc(CNC(=O)c2ccc(SC)cc2OC)cc1,-3,-4,9,0.6,-10,-8
N[C@@H](CO)c1nnc([C@H](CC(=O)O)NC(=O)C2CCNCC2)o1,-2,-28,?,-0.6,21,-4
COc1cc(OC)cc(C(=O)Nc2ccccc2-c2nnn(CC(=O)Nc3cc(C)on3)n2)c1,-6,0,-10,0.4,9,-18
Cc1cccc(NC(=S)Nc2ccc(N3CCOCC3)cc2)c1C,1,-12,-1,0.0,12,?
COc1ccc(OC)c(/C=C/C(=O)N2CCCc3ccccc32)c1,-6,-12,2,3.4,-6,-13
Cc1sc2nc3c(C(=O)N4CCCC4)cc(C(=O)c4ccccc4O)cn3c(=O)c2c1C,-7,3,4,1.2,-4,-14
CCN(C(=O)c1cccnc1)c1ccccc1,12,3,-2,3.1,7,11
COc1cc(/C=N/NC(N)=S)ccc1OCC(=O)N1CCOCC1,-2,-22,-9,-0.4,8,-4
COc1cc(/C=N\NC(=O)CC#N)ccc1OC/C=C/c1ccccc1,-6,?,?,0.8,-21,-18

# The list continues.
SMILES,D2 PAM,Six1-Eya2 blk,CtBP-E1A blk,TRPML1 agonist,TRPML1 inh,TRPV1 PAM
Cc1ccccc1S(=O)Cc1ccc(C(=O)N2CCN(C(=O)c3ccco3)CC2)o1 (stereo not drawn),4,0,7,0.8,29,-10
COc1ccc(OC)c(CNn2c(-c3cccc(C)c3)nc3ccccc3c2=O)c1,-9,-3,-4,2.8,2,-6
COc1ccc(CNC(=O)C(C)NS(=O)(=O)c2ccc(C)cc2)cc1 (stereo not drawn),-9,6,-4,0.2,1,-1
Cc1cccc(N2CCN(C(c3ccncc3)c3nnnn3C(C)(C)C)CC2)c1C (stereo not drawn),-1,-3,-2,0.3,10,1
COc1ccc(CCNC(=O)COc2ccc(C)nc2[N+](=O)[O-])cc1,-7,-4,-1,-0.5,-13,7
CCn1cc(C(=O)NCc2ccc3c(c2)OCO3)c2cc(OC)c(OC)cc2c1=O,18,4,6,-1.1,-3,6
Cc1ccccc1CC(=O)N1CC(C)OC(C)C1 (stereo not drawn),0,6,/,-0.6,10,-10
NC(=O)c1ccsc1NC(=O)COC(=O)c1cc(Cl)ccc1O,1,-17,-16,-0.5,18,1
CCOC(=O)c1c(C)[nH]c(C(=O)OCC(=O)N(CC)c2c(N)n(Cc3ccccc3)c(=O)[nH]c2=O)c1C,-1,-2,-25,0.8,-8,/
COc1ccc(C(=O)/C=C/c2ccc(C)cc2)c(OC(=O)c2ccc([N+](=O)[O-])cc2)c1,-7,2,12,1.5,-3,10
N#CCSc1nc2ccccc2c(=O)n1C1CCCCC1,-2,13,6,2.1,23,-8
CC(C)(C)S(=O)N1Cc2cc(C(=O)Nc3ccc(-c4ccccc4)cc3)nc(-c3cccc(-c4cc5ccccc5o4)c3)c2[C@@H]1CCO (stereo partly drawn),-8,1,-1,0.0,/,/
Cc1cccc(/C=C2\Oc3cc(OS(C)(=O)=O)ccc3C2=O)c1,29,-8,-2,1.6,8,6
O=C(NNC1OC(CO)C(O)C(O)C1O)c1cccnc1 (stereo not drawn),-32,-2,-11,-0.5,-3,9
O=C(NC(=S)Nc1ccccc1N1CCOCC1)c1ccccc1F,-6,-13,-2,-0.1,-11,-17
Cc1ccc(C)c(OCCC(=O)OC(C)C(=O)Nc2c(C)n(C)n(-c3ccccc3)c2=O)c1 (stereo not drawn),-2,-5,7,0.9,7,6
COc1cc(C(=O)Sc2ccc(C)cc2)cc(OC)c1OC,-10,-3,9,3.7,13,2
CC1=CC(C)(C)N2C(=O)C3(C(C#N)=C(N)Oc4cc(O)ccc43)c3c(C)c(C)cc1c32 (stereo not drawn),-2,-12,-10,2.2,-13,-11
Cc1ccc(NC(=O)NNC(=O)c2cc3ccccc3cc2O)cc1,-11,0,6,0.6,10,7
CCCC(=O)N1CCN(c2nc3c(OC)ccc(Cl)c3s2)CC1,-4,0,1,-0.5,3,-5
CCOC(=O)N1CCC(NC(=O)C2CCCN(C(=O)N3CCOc4ccccc43)C2)CC1 (stereo not drawn),-6,11,-7,-0.6,3,3
Cc1ccc(OCC(=O)NCCCNC(=O)c2cccnc2)cc1,-7,-7,-6,0.6,12,-7
O=C(CSc1nnc(-c2ccc(Br)cc2)n1CCc1ccccc1)NC1CCS(=O)(=O)C1 (stereo not drawn),3,2,0,-0.4,0,-11
O=S(=O)(c1ccc(F)cc1F)N1CCN(CCO)CC1,-7,14,2,0.4,11,/
